Mtb hypoxia rep – reduces hypoxia-regulated biosensor signal in M. tuberculosis | AID 1159583 | M. tuberculosis hypoxia-regulated fluorescent reporter, fluorescence | 0.1% of 300,000 active | fluorescence inhibition, % (concentration not given with the values);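 active = 35 to 45% if threefold the growth effect, above 45% if 1.5-fold the growth effect; inactive = the rest, general growth blockers included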;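 note: wells of about 50 µL received 100 nL stock; 0% = vehicle wells and 100% = reference inhibitor wells; whole bacteria with a GFP reporter of the hypoxia response; strong numbers were not always called active; many hits fall short of the cut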
PrP UTR inh – suppresses PrP 5' UTR mRNA reporter expression; cell-based PrP 5' UTR mRNA reporter, plate reader; inhibition, % (test concentration not listed); 0.35% of 340,000 active; AID 488862;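 active = every replicate at 50% or more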;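 note: 0 = median of the neutral control wells; tested in H4 reporter cells; numbers are from one replicate; inactives centre near -14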
Bead autofluor – flagged as autofluorescent in microsphere protease counterscreen; compound autofluorescence counterscreen, microsphere flow cytometry; active compounds read high; fluorescence intensity (no concentration beside the values); 3.1% of 360,000 active; AID 624483;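 active = at least 3 SD above the mean of all compounds, about 16000 in these data; inconclusive = too few beads counted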;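 note: 100 nL of 1 mM stock went into each well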
Sa ugtP lethal – compounds lethal to S. aureus RN4220 ugtP deletion mutant | OD600 growth, 16 h; some inactives read as strong as hits | growth inhibition, % (test concentration not listed) | 0.54% of 330,000 active | AID 1259309;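 active = z-score under -3 and OD600 up to 0.15 on both plates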;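 note: plate controls were untreated wells for no effect and antibiotic for full effect; wells of about 80 µL received 100 nL stock; the first replicate is given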
BJeLR lethal – BJeLR cell viability loss; BJeLR (HRASV12) viability, CellTiter-Glo ATP luminescence, 48 h; reference of the scale not given here; inhibition, % (no concentration beside the values); 0.17% of 300,000 active; AID 1554;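 active = replicate mean above 50%; inconclusive = above 50% but judged a plate artefact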;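 note: 50 nL library stock added to about 25 µL; numbers are from one replicate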
Sa RN4220 lethal – S. aureus RN4220 growth inhibition. OD600, 16 h. inhibition, % (no concentration beside the values). 0.33% of 330,000 active. AID 1259311;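 active = z-score of -3 or lower and OD600 up to 0.18 on both plates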;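 note: plate controls were untreated cells for no effect and reference antibiotic for full effect; stock transfer was 100 nL into about 80 µL; one replicate is shown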
Mtb hypoxia rep growth – also measured in Mtb hypoxia rep; calls as there; growth inhibition, %; measured here: M. tuberculosis growth (absorbance);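 0% = vehicle and 100% = reference antibiotic; read after six days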
Active calls of the source: *; ? = inconclusive; · = no result given.

molecule	Sa ugtP lethal	BJeLR lethal	Sa RN4220 lethal	PrP UTR inh	Mtb hypoxia rep growth	Mtb hypoxia rep	Bead autofluor
c1ccc(Cc2nnc3sc(Nc4ccccc4)nn23)cc1	-0.6	-0.2	2.8	-14.3	-1.4	3.0	16579*
c1ccc(C2OC3c4cccc5cccc(c45)C3N2c2ccccc2)cc1 (stereo not given)	84.4*	-4.5	-6.0	-4.9	9.5	0.3	22884*
O=C(CNc1cccc(C(F)(F)F)c1)Nc1cccc(S(=O)(=O)N2CCCC2)c1	-17.5	·	-1.8	-6.7	3.3	6.5	6392
C/C=C/c1ccccc1OCc1ccc(C(=O)O)o1	6.0	8.6	0.5	-5.5	·	·	3123
CCC(NS(=O)(=O)c1ccc(C)cc1)C(=O)N1CCOCCOCCOCCOCC1 (stereo not given)	6.4	-17.4	3.5	-5.7	10.0	1.2	3536
COc1cc(OC)cc(C(=O)N/N=C(\C)CC(=O)Nc2ccccn2)c1	·	0.8	·	-26.3	·	·	4983
CC(=O)C1=C(O)C(=O)N(c2ccc(C(=O)O)cc2)C1c1ccccc1 (stereo not given)	11.3	6.3	3.4	-6.7	-3.1	6.4	4141
CCC(C)NC(=O)CCNS(=O)(=O)c1ccc(Br)cc1 (stereo not given)	3.7	6.6	-0.3	-6.9	-1.7	3.3	21722*
Cn1nnc(NC(=S)NC(=O)c2ccco2)n1	12.7	2.7	4.1	-5.4	-3.7	2.6	1975
N#C/C(=C(/O)CN1CCN(c2ccccc2F)CC1)c1nc(-c2ccccc2)cs1	-8.5	-2.4	3.4	-14.1	10.0	2.6	9204
CC(C)c1ccc2[nH]c3c(c2c1)CCCC3=O	1.1	-4.3	5.8	2.6	-5.0	0.6	5211
CC(=O)c1ccc(N2CCN(C(=O)CCCn3c(=O)[nH]c4ccc(Br)cc4c3=O)CC2)cc1	3.4	-7.9	9.4	-57.6	6.9	-5.9	4985
Cc1cccc(N2C(=O)CC(N3CCN(c4ccc(Cl)cc4)CC3)C2=O)c1 (stereo not given)	6.8	-3.4	2.5	-35.3	8.5	4.3	3646
O=C(Nc1ccc2c(c1)OCCO2)c1cccc(C(=O)Nc2ccc3c(c2)OCCO3)c1	10.4	1.9	4.6	-65.4	-2.5	0.5	2923
O=C1C2(CCCC13COC(c1ccc(O)cc1)OC3)COC(c1ccc(O)cc1)OC2 (stereo not given)	3.1	-4.6	2.7	·	9.4	6.8	·
O=C(Nc1ccc(NC(=O)c2ccccn2)cc1)C(=O)Nc1ccc2c(c1)OCCO2	-2.3	4.1	10.5	-34.3	11.2	12.7	3866
COc1cc(C(=O)N2CCNCC2)cc(OC)c1OC	11.6	-1.0	0.5	-22.3	2.3	14.4	3519
CCc1ccc(NC(=O)COC(=O)C2(c3ccc(Cl)cc3)CCCC2)cc1	·	-13.0	·	-32.5	·	·	9924
Cc1cccc(C)c1N/C=C/c1onc(C)c1[N+](=O)[O-]	14.2	5.9	17.0	2.3	-4.7	-3.6	2383
c1ccc(CCNCc2ccccc2)cc1	6.4	-7.1	2.9	-11.2	2.0	7.4	2040
CC(C)(C)C(=O)N1CCN(c2ccc(NC(=O)c3ccco3)cc2)CC1	2.1	-13.6	2.1	-9.9	0.2	7.4	3214
Cc1ccccc1-n1c(Cn2c(=O)sc3ccccc32)nnc1SCC(=O)N1CCOCC1	1.7	·	10.4	-14.8	·	·	5971
Cc1cccc(NC(=O)c2ccc(OCc3c(C)noc3C)cc2)c1C	-0.6	·	-0.2	7.5	3.9	-0.3	2850
COc1ccc(/C=C/c2ccccc2)cc1[C@H]1[C@@H]2C=CCC[C@@]2(C)C(=O)N1Cc1ccccc1	·	-4.7	·	-29.4	·	·	2889
O=C(COc1ccc(S(=O)(=O)NC2CCCCC2)cc1Cl)N1CCN(c2ccccc2)CC1	-11.3	4.4	1.4	-18.6	1.0	-1.4	22544*
CCCC(O)(c1ccc(OC)cc1)C(CN1CCOCC1)c1ccc(Cl)cc1 (stereo not given)	-7.3	1.4	0.1	8.2	4.6	-1.1	3583
Cc1ccc(/C(N)=N/OC(=O)Cc2cccs2)cc1	20.5	-8.7	10.3	-41.4	3.4	3.4	23460*
CCOc1ccccc1N1CCN(C(=O)NC2CCCCC2)CC1	11.1	0.9	3.4	-2.6	-3.9	9.0	4400
O=C(CCCC1=NS(=O)(=O)c2ccccc2N1)N1CCN(c2ccccc2)CC1	1.3	-2.2	3.6	-24.7	15.8	6.4	4193
COCCCn1c(=O)c2sccc2n2c(CCCC(=O)NCc3ccccc3OC)nnc12	11.2	8.3	4.1	-20.0	-2.7	12.7	4216
O=c1oc2ccccc2c2oc3cc(O)c(O)cc3c12	-5.5	-3.7	8.7	-29.6	-14.5	6.6	4477
Cc1ccc(S(=O)(=O)Nc2ccc3ccccc3c2[N+](=O)[O-])cc1	52.3	·	71.4	-21.9	5.2	6.7	2718
COc1ccc(/C=C/C(=O)OC(C)CN2CCOCC2)cc1 (stereo not given)	5.1	-1.3	2.1	-4.8	-7.4	6.6	17262*
O=C(CN(C(=O)C1CSC(=O)C1)c1ccccc1F)NCc1ccc2c(c1)OCO2 (stereo not given)	-7.5	2.4	-7.1	-25.2	1.4	-5.8	10629
O=C(Cn1cnc2ccccc2c1=O)NCC(=O)N1CCN(c2ccccn2)CC1	3.5	·	0.6	-13.5	·	·	2161
Cc1ccc(NC2CCCN(C(=O)C3CCCC3)C2)cc1C (stereo not given)	6.2	-2.5	2.8	-12.9	3.9	8.9	5881
COc1ccc(CNC(=O)c2cc(=O)c3cc(C)cc(C)c3o2)cc1	3.7	-1.6	0.5	·	7.5	9.9	3061
COCc1cc(C)nc(NN=Cc2ccc(Cl)c(Cl)c2)c1C#N	8.2	·	3.1	·	2.8	7.7	·
CC(C)[C@H](Nc1ccc(S(=O)(=O)N2CCOCC2)cc1[N+](=O)[O-])C(=O)OCC(N)=O	·	-7.7	·	-5.9	·	·	9644
CCOC(=O)c1c(C)[nH]c(C)c1C(=O)COC(=O)c1ccc(S(=O)(=O)C(F)F)cc1	5.1	·	5.4	-28.7	8.8	6.6	6006
CCCCN(CC)S(=O)(=O)c1ccc2c(c1)CCCN2C(C)=O	0.2	0.5	7.0	-16.8	·	·	4187
COc1ccsc1C(=O)NCCN1CCOCC1	0.2	-7.8	0.9	-14.9	6.3	-0.8	5501
Cc1ccc(-c2nn3c(C)nnc3c3ccccc23)cc1S(=O)(=O)NCCO	0.4	-3.2	2.2	8.1	1.5	0.1	4563
C[C@]12CC[C@@H](O)CC1=CCC1C2CC[C@@]2(C)C1C[C@@H](F)[C@H]2O (stereo not given in full)	2.5	·	6.4	-16.8	7.0	3.8	3983
O=C(NC1=NCCCCC1)c1cccc2ccccc12	1.7	4.4	-3.0	-5.7	9.9	0.6	4838
CCc1n[nH]c(=S)n1/N=C/c1cc(Br)c(O)c(OC)c1	·	-12.5	·	-75.6	·	·	4407
CCS(=O)(=O)NCCc1cc2cc(C)c(C)cc2[nH]c1=O	-0.1	·	1.2	-25.4	·	·	2683
C/C(=N\NC(=O)c1c(Cl)c(C)nn1C)c1cccc(NC(=O)c2cccc(F)c2)c1	·	3.6	·	1.4	·	·	4479
Cc1ccc(CN2CCCC(C(=O)c3cccc(C(F)(F)F)c3)C2)o1 (stereo not given)	3.4	-2.3	4.3	-28.5	1.6	8.7	4966
CC1=C([N+](=O)[O-])C(c2ccccc2Cl)NC(=O)N1C (stereo not given)	-2.3	-7.2	2.1	-47.8	2.5	11.3	3456
O=c1[nH]c(C2CCN(S(=O)(=O)c3ccc(C(F)(F)F)cc3)CC2)nc2c1nnn2Cc1cccc(F)c1	-15.2	-11.0	-1.5	-14.0	7.6	-14.5	4003
COc1ccc(-c2csc(NC(=S)NC(=O)/C=C/c3ccco3)n2)cc1OC	-7.7	21.2	5.4	-29.7	-0.8	3.8	2419
COCCNC(=O)Nc1ccc2nc(-c3cccs3)c(-c3cccs3)nc2c1	-8.5	5.5	0.5	-15.2	·	·	4576
Cc1cc2cc(CN(Cc3ccco3)C(=O)NCc3ccccc3)c(=O)[nH]c2cc1C	-15.8	-2.7	11.4	-10.9	7.2	2.4	3310
Cc1cc2c(NC(=O)CC(C)(C)CC(=O)O)cccc2nn1	5.3	-6.6	4.7	-7.4	-5.5	1.0	2884
Cc1cc([N+](=O)[O-])ccc1NC(=O)CSc1nncn1-c1ccccn1	4.3	-9.0	4.7	-12.0	-8.3	-6.2	4540
COc1ccc(C2/C(=C(/O)c3ccccc3)C(=O)C(=O)N2C)cc1OC (stereo not given)	1.8	-3.2	4.3	-16.1	-4.5	6.4	4526
O=C(Nc1ccc(F)c(F)c1)c1ccccc1	7.0	·	4.5	-69.2	10.5	19.6	3777
O=C(O)Cc1ccc(NS(=O)(=O)c2ccccc2Br)cc1	7.1	-0.2	3.2	-0.9	3.1	3.1	4822
Nc1nc(N)nc(-c2ccc(Oc3ccccc3)cc2)n1	27.4	-5.0	-0.2	-26.6	-3.9	7.8	6352

Further structures:
molecule	Sa ugtP lethal	BJeLR lethal	Sa RN4220 lethal	PrP UTR inh	Mtb hypoxia rep growth	Mtb hypoxia rep	Bead autofluor
CCCCn1c(NCCN(C)C)nc2c1c(=O)[nH]c(=O)n2C	2.3	-0.1	0.5	-7.8	·	·	4438
CCOc1ccc(-n2c(O)c(/C=N/Nc3nnc(C)c(=O)[nH]3)c3ccccc3c2=O)cc1	8.1	7.3	4.8	-34.1	4.2	3.5	5637
O=C(COC(=O)c1ccccn1)Nc1ncc(C(F)(F)F)cc1Cl	-9.9	0.5	5.8	-7.4	·	·	3427
O=C(O)CSc1nnc(COc2ccccc2)n1-c1ccccc1	2.4	-1.1	2.7	-27.1	-6.9	6.4	3353
COc1ccccc1CCC(=O)OCC(=O)NC1CCCC1	1.1	1.3	5.2	-28.6	2.9	7.9	5881
Cc1nn(C)c(C)c1CCC(=O)O	-3.3	2.1	0.9	-13.3	14.2	-1.0	3559
COc1ccccc1C(=O)NC(=O)COC(=O)CCOc1cc(C)ccc1C	3.5	7.4	3.6	-36.1	9.8	3.4	6001
Cc1onc(-c2ccccc2)c1C(O)c1ccc(F)cc1 (stereo not given)	-4.9	1.1	0.7	-18.9	5.1	13.6	4043
CN(C)c1ccc(S(=O)(=O)N2CCCCC2)cc1NC(=O)CCNC(=O)c1ccccc1Cl	1.2	·	3.7	-18.5	58.4*	23.5*	3937
CCN(CC)CCOC(=O)c1ccc(N=Cc2c(O)[nH]c(=O)[nH]c2=O)cc1	4.3	4.8	2.4	-16.5	·	·	3369
COc1ccc(-c2cc(C(=O)Nc3cc(C)on3)no2)cc1OC	-1.0	6.2	1.6	-37.4	12.1	-1.3	6355
C/C(Cn1nnc([N+](=O)[O-])n1)=N\NC(=O)c1ccc(O)cc1	·	17.6	·	7.0	·	·	4134
CC1CCC2(CC1)NC(=O)N(CC(=O)N1CCN(C(=O)c3ccco3)CC1)C2=O (stereo not given)	3.4	·	7.5	-15.5	2.5	10.4	8501
CC(C)CCNC(=O)CON=Cc1ccccc1OC(F)F	1.6	·	1.7	·	7.0	2.4	·
O=C(NCCc1cnc[nH]1)c1cccs1	11.1	-1.5	3.2	-3.8	0.0	3.6	3110
CCc1nc(SCC(=O)N2CCCCCC2)c2c(=O)n(C)c(=O)n(C)c2n1	-1.7	12.7	2.8	-0.8	2.0	3.3	?

5 compounds drawn at random from the list so far:
molecule	Sa ugtP lethal	BJeLR lethal	Sa RN4220 lethal	PrP UTR inh	Mtb hypoxia rep growth	Mtb hypoxia rep	Bead autofluor
CC1CCC2(CC1)NC(=O)N(CC(=O)N1CCN(C(=O)c3ccco3)CC1)C2=O (stereo not given)	3.4	·	7.5	-15.5	2.5	10.4	8501
CCc1nc(SCC(=O)N2CCCCCC2)c2c(=O)n(C)c(=O)n(C)c2n1	-1.7	12.7	2.8	-0.8	2.0	3.3	?
CCCCn1c(NCCN(C)C)nc2c1c(=O)[nH]c(=O)n2C	2.3	-0.1	0.5	-7.8	·	·	4438
COc1ccc(-c2cc(C(=O)Nc3cc(C)on3)no2)cc1OC	-1.0	6.2	1.6	-37.4	12.1	-1.3	6355
C/C(Cn1nnc([N+](=O)[O-])n1)=N\NC(=O)c1ccc(O)cc1	·	17.6	·	7.0	·	·	4134
